High-throughput results (PubChem)
Ba CapD inh: CapD enzyme inhibition; z-score (test concentration not listed); purified CapD enzyme, fluorescence intensity read-out; stronger effect = lower value; some hits fall short of the stated cut; AID 492967; 140,000 compounds, 0.23% hits;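 active = z-score under -4 in either of two replicates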;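 also: stock transfer was 100 nL into about 40 µL; score is relative to mean and spread of the plate; one replicate is shown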
AID504770: growth inhibitors of E. coli YBA685 in a screen for V. cholerae RctB (chromosome II replication) inhibitors; E. coli YBA685 rctB-dependent plasmid, OD600 growth, 3 h; stronger effect = lower value; z-score (test concentration not listed); 130,000 compounds, 0.27% hits;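 active = z-score under -2 on both plates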;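 also: wells of about 30 µL received 100 nL stock; score is relative to mean and SD of the test wells; the first replicate is given; strong numbers were not always called active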
Starred values were filed as active, the others as inactive; i = inactive; . = no result given; & = joins results of further samples. Not a hit list. About 0.39% of those tested had a hit in this group.

The opening 4 entries (preview)
SMILES,Ba CapD inh,AID504770
CC1C(=O)C(C)C(c2ccc(Br)cc2)NC1c1ccc(Br)cc1 (configuration not stated),3.8,0.1
Cc1ccc(-n2c(C)cc(C=Nc3ccc(-c4nnc5n4CCCCC5)cc3)c2C)cc1,.,-0.5
O=C(Oc1ccccc1)c1cccc(COC(=O)c2cnccn2)c1,0.005,-0.85
NC(=O)Nc1ccc(Cl)cc1,-0.3,.

All compounds of this part (from the top)
SMILES,Ba CapD inh,AID504770
CC1C(=O)C(C)C(c2ccc(Br)cc2)NC1c1ccc(Br)cc1 (configuration not stated),3.8,0.1
Cc1ccc(-n2c(C)cc(C=Nc3ccc(-c4nnc5n4CCCCC5)cc3)c2C)cc1,.,-0.5
O=C(Oc1ccccc1)c1cccc(COC(=O)c2cnccn2)c1,0.005,-0.85
NC(=O)Nc1ccc(Cl)cc1,-0.3,.
O=C1NC(=S)S/C1=C/c1ccc(-c2cccc(C(F)(F)F)c2)o1,i,-0.15
CCOc1ncccc1C(=O)OCc1cn2cc(Cl)ccc2n1,.,0.8
CC(C)c1ccc(C(=O)CSc2n[nH]c(-c3ccco3)n2)cc1,-0.79,.
CN1CCN(c2cc(-c3cccnc3)nc3ccccc23)CC1,3.6,0.1
O=C(CCCn1c(=O)c2cccn2c2ccccc21)NCCN1CCCCCC1,0.21,0.55
CC1CN(S(=O)(=O)c2cccs2)C(C)CN1S(=O)(=O)c1cccs1 (configuration not stated),.,1.1
Cc1ccc(NC(=O)Cn2c(=O)c(C#N)c3n(c2=O)CCC3)cc1,.,3.7
CC1CN(C(=O)c2ccc(Oc3ccccc3)cc2)CC(C)O1 (configuration not stated),.,-0.6
O=C1C2C(c3ccccc3)C=CC(c3ccccc3)C2C(=O)N1C1CCCCC1 (configuration not stated),-0.65,0
FC(F)(F)c1ccc(NC2=NCCCS2)cc1,-0.25,-0.3
Cc1ccn2cc(CNS(=O)(=O)N(C)C)nc2c1,0.085,-0.3
O=C(N/N=C/c1ccccc1)NC1CCCCC1,.,0.25
CCn1c(=O)[nH]c(=O)c2c(C(F)(F)F)cc(C(F)(F)F)nc21,.,-0.1
O=C(c1cccs1)N1CCC(c2nc(C(c3ccccc3)c3ccccc3)no2)CC1,0.045,.
CCCCSCc1ccc(C(=O)O)o1,.,0.8
O=C(CN1C(=O)S/C(=C\c2ccccc2)C1=O)N1CCN(c2ccccc2)CC1,.,-1.2
CCOC(=O)/C(C#N)=C/N1CCCC1c1cccs1 (configuration not stated),0.42,-0.95
FC(F)(F)c1cccc(OCc2nnc3n2CCC3)c1,.,-0.4
COc1ccc(Br)cc1C1C(C#N)=C(N)Oc2c1c(C)nn2-c1ccccc1 (configuration not stated),0.08,.
COc1cc2c(cc1OC)C(COc1ccc3c(C)cc(=O)oc3c1)N(C(=O)c1ccco1)CC2 (configuration not stated),.,0.05
CS(=O)(=O)N/N=C/C=C/c1ccccc1,-1.8,0.6
CCN(CC)CCSc1nc2ccccc2c(=S)n1-c1ccccc1,16,1.8
COc1ccc(NC(=O)CSc2nc(N)nc(SC)c2C#N)cc1,-0.35,.
CCc1ccc(N2CC(C(=O)NCCCn3ccnc3)CC2=O)cc1 (configuration not stated),.,-0.3
CCOC(=O)C1CCN(C(=O)CCC(=O)NNc2nc3ccccc3c3nc(-c4ccccc4)nn23)CC1,-0.04,-0.05
CCOc1ccc2c(c1)ncn2Cc1ccccc1,-0.79,1.2
CCOc1ccc(CN(C)C(=O)CNC(=O)C2CCCCC2)cc1,.,0.05
COc1ccc(N2C(=O)CCC(C(=O)NCc3ccc(F)cc3)C2c2ccc(F)cc2)cc1 (configuration not stated),-0.62,0
Nc1cc(=O)[nH]c(SCc2ccc(Cl)cc2Cl)n1,0.18,.
Cc1cc(C)nc(NS(=O)(=O)c2ccc(N)cc2)n1,-0.27&-0.51,1
COc1ccc(N2C(=O)c3ccccc3NC2c2ccc3c(c2)c2ccccc2n3C)cc1 (configuration not stated),19,.
O=[N+]([O-])c1c(-c2cc(C(F)(F)F)cc(C(F)(F)F)c2)cc(C(F)(F)F)cc1C(F)(F)F,2.3,.
CCCSc1nnc2c(n1)OC(c1ccccc1OCC(=O)OCC)Nc1ccccc1-2 (configuration not stated),0.04,.
O=S1(=O)CCC(n2nnnc2-c2ccccc2)C1 (configuration not stated),0.39,-2.8*
O=C(/C=C/c1cnc2ccccc2n1)OCC(=O)N1CCCCCC1,.,0.75
COc1ccccc1/C=C/C1N=C(N)Nc2nc3ccccc3n21 (configuration not stated),.,-0.6
CCOC(=O)c1cnn(-c2ccc([N+](=O)[O-])cc2)c1-n1cccc1,-0.48,.
CCCCN(C)C(=O)c1ccc2c(c1)N(Cc1ccccc1F)C(=O)c1ccccc1S2=O (configuration not stated),-0.48,-0.2
CC(C)(C)C(=O)NCc1ccc(-c2csnn2)cc1,-0.36,0.2
NC(=O)c1oc2ccccc2c1NC(=O)CN1C(=O)c2ccccc2C1=O,.,-0.95
CN(Cc1c(F)cccc1Cl)c1ncnc2ccccc12,.,0.1
N#Cc1c(SCC(=O)c2ccccc2)sc(C(=O)c2ccccc2)c1N,-1.2,.
CSc1sc(C(=O)NCC2CC2)cc1S(=O)(=O)C(C)C,-0.25,0.5
Cc1cc(C)nc(NC(=O)c2cccc(S(=O)(=O)N3CCOCC3)c2)n1,-0.2,.
Cc1nc(N2CCCCC2)c2oc3ccccc3c2n1,9.5,.
O=S1(=O)NC(=NC2CCCCCC2)c2ccccc21,-1.3,2.2
CCCCOc1ccc(C(=O)Oc2ccc(C(C)=O)cc2)cc1,-0.15,.
COc1cc(C(=O)COC(=O)c2ccccc2)cc(OC)c1OC,.,1.5
CCOC(=O)C1=c2s/c(=C/c3ccccc3)c(=O)n2C(N)=C(C#N)C1c1ccccc1 (configuration not stated),0.2,.
COc1cccc(OC)c1C(=O)Nc1ccc(Sc2nc(C)cc(C)n2)cc1,0.26,.
CCCN(CCC)c1nc(N2CCCC2)nc(N2CCCC2)n1,-1.5,2.2
Cc1nc(N)[nH]c(=O)c1CC(=O)O,32,1.4
O=C(NCCC1=CCCCC1)c1c[nH]c2ccc(S(=O)(=O)N3CCC4(CC3)OCCO4)cc2c1=O,-1.4,.
CC1Cc2nc(SCC(=O)NCc3ccco3)n(Cc3ccccc3)c(=O)c2S1 (configuration not stated),-3.2,2.7
O=C(CN1CCOCC1)OCCCC1CCCCC1,-0.095,-0.3
COc1ccc(-c2nnc(SCc3ccc(C#N)cc3)n2C(C)C)cc1,.,-0.55

Record cards, as listed above.
N#Cc1c(SCC(=O)c2ccccc2)sc(C(=O)c2ccccc2)c1N is entered as Ba CapD inh = -1.2; AID504770 = .
CC1Cc2nc(SCC(=O)NCc3ccco3)n(Cc3ccccc3)c(=O)c2S1 (configuration not stated) is entered as Ba CapD inh = -3.2; AID504770 = 2.7

Remaining list, next part
SMILES,Ba CapD inh,AID504770
O=C(NCc1ccccc1)C1CC1,0.77,-0.55
Cc1[nH]nc2oc(=O)c(CC(=O)O)c(C)c12,.,1.5
OC(Cc1ccccc1)(Cc1ccccc1)C1CN2CCC1CC2 (configuration not stated),-0.75,0.4
CC(C)C(=O)NCCN1C(=O)S/C(=C\c2cccs2)C1=O,.,-0.1
CCCN1C(=O)/C(=C2\SC(=S)N(c3c(C)n(C)n(-c4ccccc4)c3=O)C2=O)c2ccccc21,-0.12,.
CC1CCN(C(=O)CSc2nc3cc4c(cc3c(=O)n2CCC2=CCCCC2)OCO4)CC1,0.15,-0.5
O=C(Nc1nnc(-c2ccccc2Cl)s1)C1CC1,0.77,0.75
CCOC(=O)c1nc(N)c(=O)n(-c2ccccc2)n1,1.2,0.6
CC(=O)Nc1ccc(C(=O)COc2ncnc3c2cnn3-c2ccccc2)cc1,.,0.3
O=C(N/N=C/c1ccc(OCCCF)cc1)c1ccc(C(F)(F)F)cc1,-0.14,.
O=C(O)C1CC1C(=O)N1CCN(c2ccc(C(F)(F)F)cn2)CC1 (configuration not stated),7.2,.
CC(C)(C)c1cc(CCCOC(=O)CSCC(=O)OCCCc2cc(C(C)(C)C)c(O)c(C(C)(C)C)c2)cc(C(C)(C)C)c1O,0.56,.
CCCCn1c(CNC(=O)c2ccco2)nnc1SCC(=O)Nc1sc2c(c1C(=O)OCC)CCCCC2,-0.42,.
CCC(=O)Oc1ccc(C2CC(=O)c3c(ccc4ccccc34)N2)cc1OC (configuration not stated),8.3,-0.4
O=C(O)C1C2C=CC(C2)C1C(=O)NNc1ncnc2ccccc12 (configuration not stated),.,0.75
Cc1ccc2[nH]c(O)c(N=NC(=O)c3nc4ccccc4c(=O)[nH]3)c2c1,.,-0.85
CCN(CC)S(=O)(=O)c1ccc(C(=O)NNc2nc3c(OC)ccc(OC)c3s2)cc1,.,-0.8
Cc1ccc2oc(=O)c(/C=C(\O)C(C)(C)C)nc2c1,-0.15,-0.55
Cc1ccc(-c2nnc(-n3nnc4ccccc43)c3ccccc23)cc1C,0.24,.
COCc1cc(C)nc(SCCN(C)C)c1C#N,.,1.8
Fc1ccc(-c2noc3ncnc(NCC4CCCO4)c23)cc1 (configuration not stated),1.1,0.65
CC(C)Cc1cc(-c2ccccc2)c(C#N)c(=O)[nH]1,7.9,.
CC1CCC[S+](c2cc(O)ccc2O)C1 (configuration not stated),.,-0.85
Fc1ccc(C2Nc3cccc4cccc(c34)N2)cc1,97,.
CC1CCCC(C)N1CCNC(=O)c1cn(C(C)c2ccccc2F)nn1 (configuration not stated),.,0.1
Oc1ccc(CN2CCCc3ccccc32)c2cccnc12,-0.15,-0.95
COc1ccc(CNCC(O)(c2ccc(F)cc2)c2ccc(F)cc2)cc1OC,-0.07,.
Cc1ccc(CNC(=O)C2CCCN(C(=O)N(C)C)C2)cc1 (configuration not stated),0.45,0.65
COc1ccccc1-c1noc(CCCC(=O)NC2CCCC2)n1,-1.2,-0.65
COc1ccc(CC(=O)NC2=NCCS2)cc1,.,-0.9
Cc1ccc(-n2c(C)nc3ccccc3c2=O)cc1,i,-0.3
CN1CC(=O)N/C1=N/C(=O)Nc1ccc2c(c1)N(C)C(=O)CS2,0.25,0.1
CCOc1cc(C2NC(=O)NC(C)=C2C(=O)OC(C)C)ccc1OCc1ccccc1 (configuration not stated),-0.065,.
N#Cc1ccccc1NC(=O)CCCC(=O)Nc1ccccc1C#N,-0.025,-0.85
O=C(NC1CCCCC1)NC1CCN(Cc2nnnn2Cc2ccc(F)cc2)CC1,.,-0.1
O=C1CCC(=O)N1CN(CN1C(=O)CCC1=O)C1CCCCC1,-0.095,-1
CCOc1sc2nc(C)n(CC(=O)N(CC)CC)c(=O)c2c1C,-0.64,0.35
CCCCCOc1ccc(/C=N/NC(=O)c2nnn(-c3nonc3N)c2CN2CCCCCC2)cc1,-0.26,.
CC1CCCN(C2(O)C(=O)N(C)c3ccc(Br)cc32)C1 (configuration not stated),-0.75,-0.05
C=CCOC(=O)C1=C(C)NC(=O)NC1c1cn(-c2ccccc2)nc1-c1ccc(C)cc1 (configuration not stated),0,.
O=C(CCSc1nnc2ccccn12)Nc1cccc(-c2nc3ccccc3s2)c1,-0.34,-0.15
Cc1ccc(C(=O)N2CCN(C(=O)OCc3ccc(-c4ccccc4)cc3)CC2)cc1,0.19,.
CCC1CCCCN1C(=O)Cc1ccc(Cl)cc1 (configuration not stated),-0.12,-0.45
CCO/C([O-])=N/c1c[n+](N2CCOCC2)no1,0.06&-1.8,0.8
Cn1cc(C(O)C(F)(F)F)c2ccccc21 (configuration not stated),0.38,0.25
COC(=O)c1cccc(N2C(=O)C3C(C2=O)C2(C=O)c4ccccc4C3(C)c3ccccc32)c1 (configuration not stated),-0.19,.
COc1ccc(N2C(=O)NC(=O)/C(=C\c3ccc(OC(C)C(=O)O)cc3)C2=O)cc1 (configuration not stated),0.3,.
C1=C(CCNC2=NCCCCC2)CCCC1,.,-0.1
NS(=O)(=O)c1ccc2nc(NC(=O)Cn3[nH]c(=O)c4ccccc4c3=O)sc2c1,.,0
CSc1n[nH]c(NC(=O)c2ccccc2Cl)c1S(=O)(=O)c1ccc(Cl)cc1,0.58,-0.05
NC(=O)CSc1nc(N)c(-c2ccccc2)c(=O)[nH]1,0.43,-1.1
CCNC(=O)N1CCN(Cc2cccc(Cl)n2)CC1,-0.16,.
CCc1cc(SCC(=O)NCCN2C(=O)CSC2=O)n2c(nc3ccccc32)c1C#N,.,0.05
O=C(N/N=C/c1ccc(Sc2nnc(-c3ccccc3)n2-c2ccccc2)o1)c1cc2ccccc2cc1O,-0.1,.
COc1ccc(NC(=O)CC(=O)Nc2ccc(OC)cc2)cc1,0.15,-0.3
CCC(=O)OCC(=O)Nc1ccc2c(c1)OCO2,.,-0.45
CN1/C(=C\C(=O)Cn2nnc3ccccc3c2=O)C(C)(C)c2ccccc21,.,0.35
